Screens: PubChem, Broad Institute
NOMO-1 viab – STK33 inhibitor candidate reducing NOMO-1 cell viability. AID 2330. NOMO-1 AML viability, CellTiter-Glo luminescence, 72 h. inhibition, % (test concentration not listed). 37,000 compounds, 7.5% hits;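 active means most replicates above 80%; inconclusive means exactly half above 80%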;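 further: wells of about 30 µL received 25 nL stock; 0% = median of vehicle wells and 100% = reference inhibitor level; the first replicate is given; inactives centre near 10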
Numbers without * were called inactive; ? = inconclusive.

SMILES	NOMO-1 viab
C[C@H]1CN([C@@H](C)CO)C(=O)c2cc(NC(=O)Cc3cn(C)c4ccccc34)ccc2O[C@H]1CN(C)Cc1ccc(C(F)(F)F)cc1	18
C[C@@H]1CN([C@H](C)CO)C(=O)c2cccc(NC(=O)c3ccncc3)c2O[C@H]1CN(C)C(=O)Nc1cccc2ccccc12	8
COc1ccc(CN(C)C[C@@H]2Oc3ccc(NC(=O)Nc4ccc5c(c4)OCO5)cc3C(=O)N([C@H](C)CO)C[C@H]2C)cc1	16
COc1ccc(NC(=O)Nc2ccc3c(c2)C(=O)N([C@H](C)CO)C[C@@H](C)[C@@H](CN(C)S(C)(=O)=O)O3)cc1	3
Cn1c(SCC(=O)c2ccc(Cl)cc2)nnc1-c1ccccc1O	17
CC(=O)c1ccc(NC(=O)CSc2nc(O)c(-c3ccccc3)c(=O)[nH]2)cc1	19
O=c1c(O[C@@H]2OC[C@H](O)[C@H](O)[C@H]2O)c(-c2ccc(O)c(O)c2)oc2cc(O)cc(O)c12	10
O=C(Nc1ccccc1C(=O)O)c1cccc(S(=O)(=O)Nc2cccc(C(F)(F)F)c2)c1	21
COc1ccc(S(=O)(=O)Nc2ccc3c(c2)CC(=O)N([C@H](C)CO)C[C@@H](C)[C@@H](CN(C)S(=O)(=O)c2ccc(Cl)cc2)O3)cc1	9
C[C@@H]1CN([C@@H](C)CO)C(=O)c2cc(NC(=O)Nc3ccc(F)cc3)ccc2O[C@@H]1CN(C)Cc1ccncc1	-20
Nn1c(C(=O)N2CCCC2)nc2ccccc2c1=O	-7
COc1ccc(S(=O)(=O)N(C)C[C@@H]2OCCCC[C@@H](C)Oc3ccc(NC(=O)Nc4ccc5c(c4)OCO5)cc3C(=O)N([C@H](C)CO)C[C@@H]2C)cc1	-4
C[C@@H]1CN([C@H](C)CO)C(=O)c2cc(NS(=O)(=O)c3ccccc3)ccc2O[C@@H]1CN(C)C(=O)Nc1ccccc1	-5
C[C@@H]1CCCCO[C@@H](CN(C)C(=O)Nc2ccccc2)[C@@H](C)CN([C@H](C)CO)C(=O)c2cc(NS(=O)(=O)c3ccccc3)ccc2O1	6
Cc1cc(C(=O)Nc2cccc3c2O[C@H](CN(C)Cc2ccncc2)[C@@H](C)CN([C@@H](C)CO)C3=O)n(C)n1	-1
C[C@@H]1CC(=O)c2c(ccc3c2C(=O)c2cccc(O)c2C3=O)C1	71
O=C1/C(=C\c2ccc(F)cc2)N=C(c2ccccc2)N1Cc1ccc(F)cc1	22
C[C@H](CO)N1C[C@H](C)[C@@H](CN(C)C(=O)Nc2ccccc2)Oc2ccc(NC(=O)Nc3ccccc3)cc2C1=O	7
NC(=O)c1c(NC(=O)COc2ccc(Br)cc2Cl)sc2c1CCCC2	-12
COc1ccc(Cl)cc1N(CC(=O)Nc1ccc(C(F)(F)F)cc1)S(C)(=O)=O	3

Shown as a markdown table: part of the list above.
| structure | NOMO-1 viab |
| --- | --- |
| Nn1c(C(=O)N2CCCC2)nc2ccccc2c1=O | -7 |
| COc1ccc(S(=O)(=O)N(C)C[C@@H]2OCCCC[C@@H](C)Oc3ccc(NC(=O)Nc4ccc5c(c4)OCO5)cc3C(=O)N([C@H](C)CO)C[C@@H]2C)cc1 | -4 |
| C[C@@H]1CN([C@H](C)CO)C(=O)c2cc(NS(=O)(=O)c3ccccc3)ccc2O[C@@H]1CN(C)C(=O)Nc1ccccc1 | -5 |
| C[C@@H]1CCCCO[C@@H](CN(C)C(=O)Nc2ccccc2)[C@@H](C)CN([C@H](C)CO)C(=O)c2cc(NS(=O)(=O)c3ccccc3)ccc2O1 | 6 |
| Cc1cc(C(=O)Nc2cccc3c2O[C@H](CN(C)Cc2ccncc2)[C@@H](C)CN([C@@H](C)CO)C3=O)n(C)n1 | -1 |
| C[C@@H]1CC(=O)c2c(ccc3c2C(=O)c2cccc(O)c2C3=O)C1 | 71 |

Carrying on:
SMILES	NOMO-1 viab
C[C@@H]1CN([C@H](C)CO)C(=O)Cc2cc(NC(=O)c3ccncc3)ccc2O[C@@H]1CN(C)Cc1ccc2c(c1)OCO2	-1
COc1ccc(NC(=O)N(C)C[C@@H]2Oc3ccc(NC(=O)Nc4ccc(F)cc4)cc3C(=O)N([C@@H](C)CO)C[C@@H]2C)cc1	6
Cc1ccc(S(=O)(=O)Nc2ccc3c(c2)CC(=O)N([C@@H](C)CO)C[C@H](C)[C@H](CN(C)CC2CC2)O3)cc1	6
C[C@@H]1CN([C@H](C)CO)C(=O)c2cc(NC(=O)C3CCCCC3)ccc2O[C@H]1CN(C)Cc1ccc(Oc2ccccc2)cc1	76
Cc1ccc(CCC(=O)Nc2cc(Cl)cc(Cl)c2)o1	48
C[C@@H]1CN([C@H](C)CO)C(=O)c2cc(NS(C)(=O)=O)ccc2O[C@@H]1CN(C)Cc1ccc(-c2ccccc2)cc1	8
C[C@H](CO)N1C[C@H](C)[C@@H](CN(C)C(=O)NC2CCCCC2)Oc2c(NS(=O)(=O)c3ccc(Cl)cc3)cccc2C1=O	15
C[C@@H]1CN([C@H](C)CO)C(=O)c2cc(NS(=O)(=O)c3ccc(F)cc3)ccc2O[C@@H]1CN(C)S(=O)(=O)c1ccccc1	4
O=C(O)CSc1nnc2n(CCc3ccccc3)c(=O)c3c4c(sc3n12)CCCC4	1
Cc1ccc(NC(=O)C(C)n2nc([N+](=O)[O-])c(Br)c2C)cc1Cl (centres undefined)	9
COc1ccc(NC(=O)Nc2ccc3c(c2)C(=O)N([C@H](C)CO)C[C@@H](C)[C@@H](CN(C)S(=O)(=O)c2ccc(Cl)cc2)O3)cc1	21
C[C@@H]1CN([C@H](C)CO)C(=O)Cc2cc(NC(=O)Cn3cnnn3)ccc2O[C@H]1CN(C)Cc1ccc(C(=O)O)cc1	-7
C[C@@H]1CN([C@@H](C)CO)C(=O)c2cccc(NC(=O)c3ccc(-c4nccs4)cc3)c2O[C@H]1CN(C)Cc1ccc(Cl)c(Cl)c1	97*
C[C@@H]1CN([C@@H](C)CO)C(=O)c2cc(NS(=O)(=O)c3ccc(Cl)cc3)ccc2O[C@@H]1CN(C)C	5
C/C=C(/C)C(=O)O[C@H]1CC(C)(C)C[C@H]2C3=CCC4[C@@]5(C)CC[C@H](O[C@@H]6O[C@H](C(=O)O)[C@@H](O[C@@H]7O[C@H](CO)[C@H](O)[C@H](O)[C@H]7O[C@@H]7O[C@H](CO)[C@@H](O)[C@H](O)[C@H]7O)[C@H](O)[C@H]6O[C@@H]6O[C@@H](C)[C@H](O)[C@@H](O)[C@H]6O)C(C)(C)C5CC[C@@]4(C)[C@]3(C)[C@@H](O)[C@@H](O)[C@@]12CO (some centres undefined)	119*
C[C@@H]1CN([C@@H](C)CO)C(=O)c2cccc(NS(=O)(=O)c3ccccc3)c2O[C@@H]1CN(C)C(=O)Nc1ccc(F)cc1	25
Cc1cc(C(=O)Nc2cccc3c2O[C@@H](CN(C)C(=O)Nc2ccc(C(F)(F)F)cc2)[C@H](C)CN([C@@H](C)CO)C3=O)n(C)n1	4
C[C@@H]1CN([C@H](C)CO)C(=O)Cc2cc(NC(=O)Nc3ccc(C(F)(F)F)cc3)ccc2O[C@H]1CN(C)C(=O)Nc1ccc2c(c1)OCO2	10
COc1ccc(S(=O)(=O)Nc2ccc3c(c2)CC(=O)N([C@H](C)CO)C[C@H](C)[C@H](CN(C)Cc2ccncc2)O3)cc1	25
COc1ccccc1N1CCN(CCCCNC(=O)c2ccc(-c3ccc(C(C)=O)cc3)cc2)CC1	34
C[C@H](CO)N1C[C@H](C)[C@@H](CN(C)C(=O)NC2CCCCC2)Oc2ccc(NC(=O)CCCCCC(=O)Nc3ccccc3N)cc2C1=O	-6
CCOc1ccc(NC(=O)CSc2nnc(-c3ccc(Cl)c(Cl)c3)n2C)cc1	12
COc1ccc(CN(C)C[C@@H]2Oc3ccc(NC(=O)C4CC4)cc3C(=O)N([C@H](C)CO)C[C@H]2C)cc1	-6
CNC[C@H]1Oc2ccc(NC(=O)Cc3cn(C)c4ccccc34)cc2C(=O)N([C@@H](C)CO)C[C@@H]1C	2
C[C@H](CO)N1C[C@H](C)[C@H](CN(C)S(=O)(=O)c2ccc(Cl)cc2)Oc2ccc(NC(=O)C3CCCCC3)cc2C1=O	7
Cc1ccc(S(=O)(=O)Nc2ccc3c(c2)C(=O)N([C@@H](C)CO)C[C@H](C)[C@H](CN(C)Cc2ccc(Oc4ccccc4)cc2)O3)cc1	16
COc1ccccc1NC(=O)c1ccc(OCC(=O)Nc2ccccc2F)cc1	2
C[C@@H]1CN([C@@H](C)CO)C(=O)c2cc(NC(=O)Nc3ccc(C(F)(F)F)cc3)ccc2O[C@H]1CN(C)C(=O)Nc1ccc2c(c1)OCO2	45
C[C@@H]1CN([C@H](C)CO)C(=O)c2cc(NC(=O)Nc3ccc(F)cc3)ccc2O[C@@H]1CN(C)S(=O)(=O)c1cn(C)cn1	1
C[C@H](CO)N1C[C@H](C)[C@H](CN(C)C(=O)Nc2ccccc2)Oc2c(NC(=O)CCCCCC(=O)Nc3ccccc3N)cccc2C1=O	5
COc1ccc(NC(=O)Nc2ccc3c(c2)C(=O)N([C@H](C)CO)C[C@H](C)[C@H](CN(C)C(=O)Nc2ccc4c(c2)OCO4)OCCCC[C@@H](C)O3)cc1	-14
C[C@H](CO)N1C[C@H](C)[C@H](CN(C)Cc2ccc(-c3ccccc3)cc2)Oc2c(NS(=O)(=O)c3ccccc3)cccc2C1=O	30
C[C@H]1CN([C@@H](C)CO)C(=O)c2cc(NS(=O)(=O)c3cn(C)cn3)ccc2O[C@@H]1CN(C)S(=O)(=O)c1cn(C)cn1	4
C[C@H](CO)N1C[C@H](C)[C@@H](CN(C)C(=O)Nc2ccc3c(c2)OCO3)Oc2ccc(NS(=O)(=O)c3cn(C)cn3)cc2C1=O	13
Cc1noc(C)c1NC(=O)N(C)C[C@@H]1Oc2c(NC(=O)c3nc4ccccc4s3)cccc2C(=O)N([C@@H](C)CO)C[C@@H]1C	14
C[C@@H]1CN([C@@H](C)CO)C(=O)c2cccc(NC(=O)Nc3ccccc3)c2O[C@H]1CN(C)S(C)(=O)=O	-8
COc1ccc(NC(=O)N(C)C[C@@H]2Oc3ccc(NC(=O)CCN4CCOCC4)cc3C(=O)N([C@H](C)CO)C[C@H]2C)cc1	2
C[C@@H]1CN([C@H](C)CO)C(=O)c2cccc(NC(=O)Nc3ccc4c(c3)OCO4)c2O[C@@H]1CN(C)S(=O)(=O)c1ccccc1	12
C[C@H](CO)N1C[C@H](C)[C@H](CN(C)Cc2ccc3c(c2)OCO3)Oc2c(cccc2N(C)C)C1=O	16
Cc1nc(SCC(=O)N(c2ccccc2)c2ccccc2)n[nH]1	-6
C[C@@H]1CN([C@@H](C)CO)C(=O)Cc2cc(NC(=O)Nc3ccccc3)ccc2O[C@@H]1CN(C)CC1CCCCC1	?
N#Cc1ccc(NC(=O)CCCn2cc([N+](=O)[O-])cn2)cc1	-8
Cc1cccc(C)c1NC(=O)COc1ccc2cc(-c3ccccc3)c(=O)oc2c1	10
Cc1ccc(OCC(O)CN2C(=O)NC(C)(C)C2=O)cc1 (centres undefined)	15
C[C@H]1CN([C@@H](C)CO)C(=O)c2cc(NC(=O)C3CC3)ccc2O[C@H]1CN(C)Cc1ccc2c(c1)OCO2	24
Cc1csc2nc(SCC(=O)Nc3ccc([N+](=O)[O-])cc3)[nH]c(=O)c12	12
O=C(Nc1ccc(Br)cc1)C12CC3CC(CC(C3)C1)C2	10
COc1ccc(CN(C)C[C@H]2Oc3c(NS(=O)(=O)c4ccccc4)cccc3C(=O)N([C@@H](C)CO)C[C@H]2C)cc1	16
CCc1ccc2nc(-c3cccc(OC)c3)cc(C(=O)NCc3ccco3)c2c1	35
COc1ccc(NC(=O)Nc2ccc3c(c2)CC(=O)N([C@H](C)CO)C[C@H](C)[C@H](CN(C)S(=O)(=O)c2c(C)noc2C)O3)cc1	-3

2 compounds picked at random from those above:
SMILES	NOMO-1 viab
N#Cc1ccc(NC(=O)CCCn2cc([N+](=O)[O-])cn2)cc1	-8
COc1ccc(CN(C)C[C@H]2Oc3c(NS(=O)(=O)c4ccccc4)cccc3C(=O)N([C@@H](C)CO)C[C@H]2C)cc1	16

Following part.
SMILES	NOMO-1 viab
CC(C)COc1ccc(/C(=N\O)c2ccccc2)cc1	?
COc1ccc(-c2coc3c(OC)c(O)ccc3c2=O)cc1	-4
C[C@@H]1CN([C@@H](C)CO)C(=O)c2cc(NS(=O)(=O)c3cccs3)ccc2O[C@H]1CN(C)S(=O)(=O)c1ccc(Cl)cc1	-6
C[C@H]1CN([C@@H](C)CO)C(=O)Cc2cc(NS(=O)(=O)c3ccccc3)ccc2O[C@H]1CN(C)S(=O)(=O)c1ccccc1	-5
C[C@H]1CN([C@@H](C)CO)C(=O)c2cc(NC(=O)CCC(F)(F)F)ccc2O[C@@H]1CN(C)Cc1ccc(C(F)(F)F)cc1	26
C[C@@H]1CN([C@@H](C)CO)C(=O)c2cccc(NC(=O)c3ccc(-c4nccs4)cc3)c2O[C@H]1CN(C)Cc1ccc(C(=O)O)cc1	-6
COc1ccccc1CNc1nc2nc(C)cc(=O)n2[nH]1	28
C[C@H]1CN([C@@H](C)CO)C(=O)c2cccc(NC(=O)Nc3ccc(C(F)(F)F)cc3)c2O[C@H]1CN(C)Cc1ccncc1	-4
C[C@@H]1CCCCO[C@H](CN(C)C(=O)Nc2ccccc2)[C@@H](C)CN([C@H](C)CO)C(=O)c2cc(N(C)C)ccc2O1	24
Cc1c(CCC(=O)O)c(=O)oc2cc(OCc3ccc(Cl)c(Cl)c3)ccc12	15
C[C@H]1CN([C@@H](C)CO)C(=O)c2cccc(NS(=O)(=O)c3ccccc3)c2O[C@H]1CN(C)S(=O)(=O)c1ccc(Cl)cc1	18
COc1ccc(NC(=O)N(C)C[C@@H]2Oc3ccc(NC(=O)Nc4cccc5ccccc45)cc3C(=O)N([C@@H](C)CO)C[C@H]2C)cc1	13

This is a subset; count on the stated rates, not on these rows.
